Vaccinia stage = Vaccinia orthopox stage-specific inhibition; activity change (mCherry), % (test concentration not listed); AID 1053133; Vaccinia-infected cells, mCherry/Venus stage reporter fluorescence; hits give low values; some inactives read as strong as hits; 89,000 tested, 0.01% active;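 active = mCherry past -33% and 40 or more points under the early reporter, replicates agreeing; inconclusive = past -33% without that gap or agreement; tested in A549 cells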;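 note: scaled between vehicle wells and reference inhibitor wells; 23 nL library stock went into each well; one replicate is shown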
Vaccinia stage Venus = recorded beside Vaccinia stage, whose call it bears; activity change (Venus), %; measured here: Venus reporter, other viral stage;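 negative = less Venus signal; first of two replicates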
The depositor's hits bear a star; ? = inconclusive; . = no result given; & = joins results of further samples. A portion of the library (hit frequency here may not be typical).

SMILES	Vaccinia stage	Vaccinia stage Venus
C[C@@H]1CN([C@H](C)CO)S(=O)(=O)c2ccc(-c3cccc(C#N)c3)cc2O[C@@H]1CN(C)C(=O)Nc1cc(F)ccc1F	-19	-20
CO[C@H]1CN(C)C(=O)c2ccc(NC(C)=O)cc2OC[C@@H](C)N(S(C)(=O)=O)C[C@@H]1C	10	7
COC(=O)[C@@H]1[C@@H](CO)[C@@H]2Cn3c(ccc(-c4cccc(F)c4)c3=O)[C@H]1N2C(=O)CC1CC1	15	-6
COc1ccc(S(=O)(=O)N(C)C[C@H]2Oc3ccc(NC(=O)C4CC4)cc3C(=O)N([C@@H](C)CO)C[C@@H]2C)cc1	-2	8
Cc1noc(C)c1S(=O)(=O)Nc1ccc2c(c1)C(=O)N([C@H](C)CO)C[C@@H](C)[C@@H](CN(C)Cc1ccccc1)O2	8	0
O=C(C[C@H]1CC[C@@H]2[C@H](COC[C@H](O)CN2C(=O)c2ccccc2F)O1)N1CCCCC1	22	8
COc1ccc(S(=O)(=O)N(C)C[C@@H]2Oc3cc(C4=CCCC4)ccc3S(=O)(=O)N([C@H](C)CO)C[C@@H]2C)cc1	-13	-14
Cn1cnc(S(=O)(=O)N2CC[C@@H]3[C@H](CO)Nc4ccc(C5=CCCCC5)cc4[C@@H]32)c1	-11	-11
C/C=C/c1ccc2c(c1)O[C@@H](CN(C)C(=O)CC1CC1)[C@H](C)CN([C@@H](C)CO)S2(=O)=O	-2	-7
O=C(C[C@@H]1CC[C@H](NC(=O)Cc2cccnc2)[C@@H](CO)O1)Nc1ccc(-c2ccccc2)cc1	-6	-3
O=C(CCN1CCCCC1)N[C@@H]1CC[C@@H](CCNC(=O)c2cc(Cl)cc(Cl)c2)O[C@@H]1CO	-5	0
C[C@@H]1CN([C@H](C)CO)C(=O)Cc2cc(NC(=O)Cn3cnnn3)ccc2O[C@@H]1CN(C)Cc1ccc(Oc2ccccc2)cc1	16	1
C[C@@H]1CN([C@H](C)CO)C(=O)c2cc(NC(=O)Cc3ccccc3)ccc2O[C@H]1CN(C)S(=O)(=O)c1ccccc1	-4	0
COc1ccc(NC(=O)N2[C@@H]3CNC[C@H]2C3c2ccc(-c3ccc(C)cc3)cc2)cc1 (stereo partly drawn)	2&1	3&10
COc1ccc2c3c([nH]c2c1)[C@@H](CO)N(C(=O)C1CCCCC1)CC31CN(S(C)(=O)=O)C1	6	6
CO[C@@H]1CN(C)C(=O)c2cc(NC(=O)c3cnccn3)ccc2OC[C@H](C)N(C)C[C@H]1C	9	3
Cc1ccc(S(=O)(=O)N(C)C[C@H]2Oc3ccc(NS(C)(=O)=O)cc3CC(=O)N([C@@H](C)CO)C[C@H]2C)cc1	-18	-1
CO[C@H]1CN(C)C(=O)c2ccc(NC(=O)C3CCC3)cc2OC[C@@H](C)N(Cc2nccs2)C[C@@H]1C	8	12
Cc1cc(C(=O)Nc2cccc3c2O[C@@H](CN(C)S(=O)(=O)c2ccc(F)cc2)[C@@H](C)CN([C@H](C)CO)C3=O)n(C)n1	7	14
COc1ccc(CN(C)C[C@@H]2OCCCC[C@H](C)Oc3ccc(NC(=O)NC4CCCCC4)cc3C(=O)N([C@H](C)CO)C[C@H]2C)cc1	?	.
C[C@@H]1CN([C@@H](C)CO)C(=O)c2cccc(NC(=O)C3CCOCC3)c2O[C@H]1CN(C)CC1CCCCC1	-2	-1
C[C@H](CO)N1C[C@H](C)[C@@H](CN(C)CC2CCCCC2)Oc2ccc(NS(=O)(=O)c3cn(C)cn3)cc2C1=O	8	9
C[C@@H]1CN([C@H](C)CO)C(=O)c2cc(NC(=O)CCCCCC(=O)Nc3ccccc3N)ccc2O[C@@H]1CN(C)Cc1ccc(C(F)(F)F)cc1	?	.
C[C@H](CO)N1C[C@H](C)[C@@H](CN(C)Cc2ccncc2)Oc2cc(-c3ccccc3)ccc2S1(=O)=O	-17	-21
CC(=O)Nc1ccc2c(c1)C(=O)N(C)[C@@H]1CC[C@@H](CC(=O)NCc3ccccc3Cl)O[C@H]1CO2	1	-12
CN(C)C(=O)C[C@H]1CC[C@@H]2[C@@H](COc3ccc(NC(=O)C4CCC4)cc3C(=O)N2C)O1	13	7
CC(C)C#Cc1ccc2c(c1)O[C@@H](CN(C)C(=O)Nc1ccccc1)[C@H](C)CN([C@@H](C)CO)S2(=O)=O	?	.
CCNC(=O)C[C@@H]1CC[C@H]2[C@@H](COC[C@@H](O)CN2S(=O)(=O)c2ccccc2F)O1	13	15
Cc1noc(C)c1S(=O)(=O)N(C)C[C@@H]1OCCCC[C@@H](C)Oc2ccc(NS(=O)(=O)c3cccs3)cc2C(=O)N([C@H](C)CO)C[C@@H]1C	3	1
C[C@@H]1CN([C@H](C)CO)C(=O)Cc2cc(NC(=O)CCC(F)(F)F)ccc2O[C@@H]1CN(C)S(=O)(=O)c1ccc(Cl)cc1	2	9
CCCNC(=O)N[C@H]1C=C[C@H](CC(=O)NC2CCC2)O[C@H]1CO	-6	-7
CC(=O)N1[C@H](CO)[C@@H]2c3ccccc3N(S(=O)(=O)c3ccccc3)C[C@@H]21	-2	2
O=C(NC[C@H]1CC[C@@H]2[C@@H](CN2S(=O)(=O)c2ccccc2[N+](=O)[O-])O1)c1cccnc1	3	0
N#C[C@H]1[C@@H](c2ccc(C#CC3CCCCC3)cc2)[C@@H](CO)N1C(=O)Nc1ccc(F)cc1	-32	-20
CCC(=O)N1C[C@H](O)COC[C@@H]2O[C@@H](CC(=O)NC)CC[C@H]21	8	5
Cc1noc(C)c1S(=O)(=O)Nc1ccc2c(c1)CC(=O)N([C@H](C)CO)C[C@@H](C)[C@H](CN(C)C(=O)NC1CCCCC1)O2	6	2
C[C@H]1CN([C@@H](C)CO)C(=O)Cc2cc(NC(=O)Cc3cn(C)c4ccccc34)ccc2O[C@H]1CN(C)Cc1ccc(C(=O)O)cc1	28	18
Cc1ccc(S(=O)(=O)N[C@H]2C=C[C@H](CC(=O)N3CCc4ccccc4C3)O[C@H]2CO)cc1	-12	-9
CCNC(=O)[C@H]1[C@H](CO)[C@H]2Cn3c(ccc(-c4cncnc4)c3=O)[C@H]2N1C(=O)NC1CCCC1	-3	4
CN1c2ccc(-c3cccc(C#N)c3)cc2[C@H]2[C@H](CCN2C(=O)Cc2ccccn2)[C@H]1CO	9	15

As entered above:
`C[C@@H]1CN([C@H](C)CO)S(=O)(=O)c2ccc(-c3cccc(C#N)c3)cc2O[C@@H]1CN(C)C(=O)Nc1cc(F)ccc1F` | Vaccinia stage: -19
`C[C@H](CO)N1C[C@H](C)[C@@H](CN(C)CC2CCCCC2)Oc2ccc(NS(=O)(=O)c3cn(C)cn3)cc2C1=O` | Vaccinia stage Venus: 9
`N#C[C@H]1[C@@H](c2ccc(C#CC3CCCCC3)cc2)[C@@H](CO)N1C(=O)Nc1ccc(F)cc1` | Vaccinia stage Venus: -20
`O=C(CCN1CCCCC1)N[C@@H]1CC[C@@H](CCNC(=O)c2cc(Cl)cc(Cl)c2)O[C@@H]1CO` | Vaccinia stage: -5
`CO[C@@H]1CN(C)C(=O)c2cc(NC(=O)c3cnccn3)ccc2OC[C@H](C)N(C)C[C@H]1C` | Vaccinia stage: 9

More entries.
SMILES	Vaccinia stage	Vaccinia stage Venus
COc1ccc(NC(=O)Nc2ccc3c(c2)C(=O)N([C@@H](C)CO)C[C@@H](C)[C@@H](CN(C)Cc2ccc(Cl)c(Cl)c2)OCCCC[C@@H](C)O3)cc1	-16	-17
Cc1ccc(S(=O)(=O)N(C)C[C@@H]2Oc3c(NC(=O)Nc4ccc(F)cc4)cccc3C(=O)N([C@H](C)CO)C[C@H]2C)cc1	-27	-21
COC(=O)C[C@H]1CC[C@H]2[C@H](COc3ccc(NC(=O)c4cccc(OC)c4)cc3C(=O)N2C)O1	-5	-13
O=C(C[C@H]1C[C@@H]2c3cc(NC(=O)Nc4ccc(F)cc4)ccc3O[C@@H]2[C@@H](CO)O1)NCC(F)(F)F	3	1
COc1ccc(S(=O)(=O)Nc2ccc3c(c2)C(=O)N([C@H](C)CO)C[C@@H](C)[C@H](CN(C)C(=O)Nc2ccc(F)cc2)OCCCC[C@H](C)O3)cc1	?	.
CCCNC(=O)C[C@@H]1CC[C@H]2[C@@H](COC[C@H](O)CN2Cc2ccccc2F)O1	6	1
COc1ccc(NC(=O)N2C[C@@H](O)COC[C@H]3O[C@H](CC(=O)N4CCCCC4)CC[C@@H]32)cc1	30	21
O=C(NCC1CC1)[C@@H]1[C@@H](CO)[C@@H]2Cn3c(ccc(-c4ccccc4F)c3=O)[C@H]1N2Cc1ccccc1	-1	3
CC(C)NC(=O)Nc1ccc2c(c1)CC(=O)N([C@H](C)CO)C[C@H](C)[C@H](CN(C)C(=O)NC(C)C)O2	2	5
C/C=C/c1ccc(C2[C@@H]3CN(Cc4ccc5c(c4)OCO5)C[C@H]2N3)cc1 (stereo partly drawn)	?	-18
COCC(=O)Nc1ccc2c(c1)C(=O)N(C)C[C@@H](OC)[C@H](C)CN(Cc1ccncc1)[C@H](C)CO2	5	1
C[C@H](CO)N1C[C@H](C)[C@@H](CN(C)C)Oc2c(NC(=O)Nc3ccc4c(c3)OCO4)cccc2C1=O	8	8
O=C(C[C@@H]1C=C[C@@H](NS(=O)(=O)c2ccccc2)[C@H](CO)O1)NCc1ccc(Cl)c(Cl)c1	-20	-18
COc1ccc(NC(=O)Nc2ccc3c(c2)C(=O)N([C@H](C)CO)C[C@H](C)[C@@H](CN(C)Cc2ccc(-c4ccccc4)cc2)O3)cc1	-12	-15
COc1ccc(NC(=O)N(C)C[C@H]2Oc3ccc(NC(=O)NC(C)C)cc3CC(=O)N([C@@H](C)CO)C[C@@H]2C)cc1	7	5
C[C@H](CO)N1C[C@H](C)[C@@H](CN(C)C(=O)Nc2cccc3ccccc23)OCCCC[C@H](C)Oc2ccc(NC(=O)Nc3ccc4c(c3)OCO4)cc2C1=O	24	10
COc1ccccc1CN1[C@H](CO)[C@@H](c2ccccc2)C12CN(C(=O)c1cnccn1)C2	-1	6
COc1ccc(S(=O)(=O)Nc2cccc3c2O[C@@H](CN(C)C(=O)Nc2ccccc2)[C@@H](C)CN([C@@H](C)CO)C3=O)cc1	18	18
C[C@@H]1CN([C@H](C)CO)C(=O)c2cccc(NS(=O)(=O)c3cccs3)c2O[C@H]1CN(C)S(=O)(=O)c1cn(C)cn1	31	15
C[C@H]1CN([C@@H](C)CO)C(=O)c2ccccc2-c2ccccc2CO[C@H]1CN(C)S(=O)(=O)c1cccc(F)c1	-18	-19
COc1ccc(NC(=O)Nc2ccc3c(c2)CC(=O)N([C@@H](C)CO)C[C@@H](C)[C@H](CN(C)C(=O)NC(C)C)O3)cc1	3	2
C[C@@H]1CCCCO[C@H](CN(C)CC2CC2)[C@H](C)CN([C@H](C)CO)C(=O)c2cc(NS(=O)(=O)c3ccccc3)ccc2O1	-4	-6
CN(C)C(=O)C[C@H]1CC[C@@H]2[C@H](COc3ccc(NC(=O)C4CC4)cc3C(=O)N2C)O1	10	13
CCN(C[C@@H]1N[C@@H](CO)[C@@H]1c1ccc(-c2ccc(F)cc2)cc1)C(=O)COC	-34	-16
C[C@H]1CN([C@@H](C)CO)S(=O)(=O)c2ccc(C#Cc3ccccc3F)cc2O[C@H]1CN(C)CC1CC1	-13	-10
O=C(C1CC1)N1CCCCN2[C@@H](CO)[C@@H](c3ccc(C#CC4CC4)cc3)[C@@H]2C1	-8	-12
C[C@H]1CCCCO[C@@H](CN(C)C(=O)CCC(F)(F)F)[C@@H](C)CN([C@@H](C)CO)C(=O)c2cc(NS(C)(=O)=O)ccc2O1	11	11
O=C(C[C@@H]1C[C@H]2c3cc(NC(=O)CC4CC4)ccc3O[C@H]2[C@@H](CO)O1)NCC(F)(F)F	4	7
COCC(=O)N1CC(=O)N2[C@H](C1)[C@@H](c1ccc(C#CCc3ccccc3)cc1)[C@@H]2CO	7	-7
C[C@@H]1CCCCO[C@@H](CN(C)S(=O)(=O)c2cn(C)cn2)[C@H](C)CN([C@@H](C)CO)C(=O)c2cc(NC(=O)Nc3ccc(F)cc3)ccc2O1	55	9
CCCNC(=O)C[C@@H]1CC[C@H]2[C@H](COc3ccc(NC(=O)Nc4ccccc4F)cc3C(=O)N2C)O1	-3	0
CN(C)CC(=O)N1CCCCN2[C@@H](CO)[C@@H](c3ccc(/C=C/c4ccccc4)cc3)[C@@H]2C1	?	.
CC(=O)N(C)C[C@H]1Oc2cc(C#CC3CCCC3)ccc2S(=O)(=O)N([C@H](C)CO)C[C@@H]1C	-17	-23
CCNC(=O)[C@@H]1[C@@H](CO)[C@@H]2Cn3c(ccc(-c4ccccc4)c3=O)[C@@H]2N1CC1CC1	17	20
COc1cccc(CNC(=O)C[C@@H]2CC[C@H](NC(=O)C3CCC3)[C@@H](CO)O2)c1	8	8

At a glance, five of the compounds above.
SMILES	Vaccinia stage	Vaccinia stage Venus
O=C(C[C@@H]1C[C@H]2c3cc(NC(=O)CC4CC4)ccc3O[C@H]2[C@@H](CO)O1)NCC(F)(F)F	4	7
COCC(=O)N1CC(=O)N2[C@H](C1)[C@@H](c1ccc(C#CCc3ccccc3)cc1)[C@@H]2CO	7	-7
C[C@@H]1CCCCO[C@@H](CN(C)S(=O)(=O)c2cn(C)cn2)[C@H](C)CN([C@@H](C)CO)C(=O)c2cc(NC(=O)Nc3ccc(F)cc3)ccc2O1	55	9
CCCNC(=O)C[C@@H]1CC[C@H]2[C@H](COc3ccc(NC(=O)Nc4ccccc4F)cc3C(=O)N2C)O1	-3	0
CN(C)CC(=O)N1CCCCN2[C@@H](CO)[C@@H](c3ccc(/C=C/c4ccccc4)cc3)[C@@H]2C1	?	.

High-throughput results from PubChem.
